Screening results deposited in PubChem by Broad Institute.
T. gondii = T. gondii ME49Luc in HeLa cells, luciferase assay, 72 h, no IFN-y (AID 1259421) | activity change, negative = inhibition, % | 6,400 compounds, 9.6% hits | T. gondii ME49Luc in HeLa, luciferase, 72 h, no IFN-y; hits give low values; reference of the scale and settings of repeat entries not given here; many of its hits are not listed in these tables;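 active = activity change below -70%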;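 note: about 20 µM from a 10 mM stock diluted 500-fold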
Numbers without * were called inactive; & = joins results of further samples.

> CC(C)NCCCn1c(Sc2cc3c(cc2I)OCO3)nc2c(N)ncnc21
  T. gondii: -67
> COC1C(O)[C@@H](O)C(O)C(O)[C@H]1O (stereo partly drawn)
  T. gondii: 5
> COc1ccc2[nH]cc(CCNC(C)=O)c2c1
  T. gondii: 25&16
> CC(C)NCCN(C(C)C)S(=O)(=O)c1ccc(Cl)cc1Cl
  T. gondii: 2
> OC[C@H]1O[C@@H](n2cnc3c(NC4CCCC4)ncnc32)[C@H](O)[C@@H]1O
  T. gondii: 13
> Cc1ccc(S(=O)(=O)NCc2ccccc2)cc1
  T. gondii: -5&14
> Cc1nc2c(O)cccc2c(=O)[nH]1
  T. gondii: 13&2
> CCn1c(=O)n(C2=C(CO)CN(CC3CCCCCCC3)CC2)c2ccccc21
  T. gondii: -1&12
> O=C(/C=C/C=C/c1ccc2c(c1)OCO2)N1CCCCC1
  T. gondii: 297&122&44
> C[C@@H]1CC2C3CCC4=CC(=O)C=C[C@]4(C)[C@@]3(F)[C@@H](O)C[C@]2(C)[C@H]1C(=O)CO (stereo partly drawn)
  T. gondii: -8&-14
> NC(N)=NCc1cccc(I)c1
  T. gondii: 8
> NC(Cc1ccc(O)cc1)C(=O)O (stereo not drawn)
  T. gondii: 3
> COc1cc(C(=O)N2CCOCC2)cc(OC)c1OC
  T. gondii: -1&8
> OC[C@H]1O[C@@H](Oc2ccc(O)cc2)[C@H](O)[C@@H](O)[C@@H]1O
  T. gondii: 18
> O=C(O)C1CC(O)CN1 (stereo not drawn)
  T. gondii: -1
> C[C@@H]1CN(c2c(F)c(F)c3c(=O)c(C(=O)O)cn(C4CC4)c3c2F)C[C@H](C)N1
  T. gondii: 4&8&-5
> COC(=O)C[C@H]1C(C)(C)[C@@H](O)[C@@H]2CC3=C4CC(O)O[C@@H](c5ccoc5)[C@]4(C)CCC3[C@@]1(C)C2=O (stereo partly drawn)
  T. gondii: -4
> CC1CCCC(C)N1NC(=O)c1ccc(Cl)c(S(N)(=O)=O)c1 (stereo not drawn)
  T. gondii: 16

Rewritten as a markdown table: part of the list above
| Molecule | T. gondii |
| --- | --- |
| CC(C)NCCN(C(C)C)S(=O)(=O)c1ccc(Cl)cc1Cl | 2 |
| OC[C@H]1O[C@@H](Oc2ccc(O)cc2)[C@H](O)[C@@H](O)[C@@H]1O | 18 |
| CC(C)NCCCn1c(Sc2cc3c(cc2I)OCO3)nc2c(N)ncnc21 | -67 |
| OC[C@H]1O[C@@H](n2cnc3c(NC4CCCC4)ncnc32)[C@H](O)[C@@H]1O | 13 |
| NC(N)=NCc1cccc(I)c1 | 8 |

An excerpt. The share of hits here may be higher or lower than overall.
